Screening results from PubChem.
Resorufin fluor: qHTS Assay for Spectroscopic Profiling in Resorufin Spectral Region; max dye-equivalent concentration, M; Compound fluorescence, resorufin region 547/598 nm, buffer; active compounds read high; actives 0.04% (n = 59,000); active = above 10 nM dye equivalent; inconclusive = 1 to 10 nM; inactive = 1 nM or less; a few of its hits are not listed in these tables; note: highest value over a series up to 38 µM
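Compounds in 100 mM Tris buffer, pH 8.0, incubated 15 min at room temperature, then read with 547 nm excitation and 598 nm emission filters. Fluorescence was converted to dye-equivalent concentration using an on-plate six-point resorufin standard curve.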
TSHR ag: qHTS Assay for Agonists of the Thyroid Stimulating Hormone Receptor | Thyrotropin receptor (Homo sapiens), P16473 | HEK293-CNG-TSHR cells (CNG channel as cAMP sensor), membrane potential dye, cAMP | Potency, µM (highest dose often 57.1 µM), without a hit: at the top dose activation, actives largely listed as activators | actives 0.48% (n = 73,000); active = well fitted activation curve of enough size with the parental cells flat; inconclusive = any curve in the parental cells; inactive = parental cells flat and receptor cells flat or falling; note: potency is the fitted concentration of half-maximal effect; % of control where 0% means no effect; weak receptor curves with flat parental cells got no call and are not listed
Target sequence (P16473 whole entry, looked up): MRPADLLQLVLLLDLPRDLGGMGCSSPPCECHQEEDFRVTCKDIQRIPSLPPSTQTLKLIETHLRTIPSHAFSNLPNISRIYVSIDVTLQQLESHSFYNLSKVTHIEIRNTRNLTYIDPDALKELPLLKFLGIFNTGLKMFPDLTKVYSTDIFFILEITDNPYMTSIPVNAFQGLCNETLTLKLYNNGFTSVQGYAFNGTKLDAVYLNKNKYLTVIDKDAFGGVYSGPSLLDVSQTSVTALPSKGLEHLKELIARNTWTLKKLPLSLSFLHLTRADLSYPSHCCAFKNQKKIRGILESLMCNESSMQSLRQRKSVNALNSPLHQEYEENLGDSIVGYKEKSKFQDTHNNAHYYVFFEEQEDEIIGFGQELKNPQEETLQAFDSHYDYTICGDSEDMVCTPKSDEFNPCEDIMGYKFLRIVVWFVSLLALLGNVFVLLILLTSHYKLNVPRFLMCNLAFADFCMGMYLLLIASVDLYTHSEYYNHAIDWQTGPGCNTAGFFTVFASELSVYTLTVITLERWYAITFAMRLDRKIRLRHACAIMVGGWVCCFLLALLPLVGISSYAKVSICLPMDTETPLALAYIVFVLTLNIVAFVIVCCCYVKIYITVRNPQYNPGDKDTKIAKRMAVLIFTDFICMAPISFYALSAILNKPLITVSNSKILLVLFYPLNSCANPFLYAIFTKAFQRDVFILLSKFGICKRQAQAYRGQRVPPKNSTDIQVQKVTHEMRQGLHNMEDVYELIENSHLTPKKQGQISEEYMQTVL
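HEK 293 cells stably expressing TSHR and a modified CNG channel, with CNG-only parental cells as counterscreen, were preloaded 60 min at room temperature with membrane potential dye containing 100 uM RO 20-1724. Compound exposure was 30 min, and depolarization was read as fluorescence at 590 nm.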
AID923: qHTS Assay for Allosteric/Competitive Inhibitors of Caspase-1: Spectroscopic Profiling in AFC Spectral Region; compound fluorescence, AFC spectral region (405/520 nm); almost no hit is shown here; Potency, µM (titrated, usually from 57.5 µM), inactives show at the highest dose fluorescence increase, actives largely listed as activators; actives 1.1% (n = 75,000); active = well fitted activation curve with a large enough effect; inconclusive = small, poorly fitted or top-dose-only effect;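 note: potency is the fitted concentration of half-maximal effect; 0% is about no effect; scaled to a free AFC standard on each plate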
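Titrations up to 57 uM read every 20 sec for 3 min (405/520 nm) with 50 nM caspase 1 and 5 uM Ac-WEHD-AFC, pH 7.5 HEPES buffer. Fluorescence-vs-time intercept gave baseline, scaled against on-plate AFC standard.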
A647 fluor: qHTS Assay for Spectroscopic Profiling in A647 Spectral Region. Compound fluorescence, A647 channel (570/671 nm), Tris buffer. max dye-equivalent concentration, M. 59,000 tested, under 10 active. AID 592, 2007; active means above 1 µM dye equivalent; inconclusive means 0.1 to 1 µM; inactive means 0.1 µM or less;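 note: values scaled relative to a standard on each plate; highest value over a series up to 38 µM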
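Spectral profiling of library compounds in pH 8.0 Tris: 15 min room-temperature incubation, single ex/em pair (570/671 nm), response normalized to Alexa 647 equivalents.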
A488 fluor: qHTS Assay for Spectroscopic Profiling in A488 Spectral Region. compound autofluorescence, A488 spectral region, dye equivalency; active compounds read high. max dye equivalency, M. actives 0.1% (n = 59,000); active = above 10 nM dye equivalent; inconclusive = 1 to 10 nM; inactive = 1 nM or less; about half of its hits are not listed in these tables;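 note: highest value over a series up to 38 µM; compound alone in buffer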
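Read-out: relative fluorescence at 480/540 nm, expressed as Alexa 488 dye-equivalent concentration from a six-point A488 standard included per plate. Conditions: 100 mM Tris, pH 8.0; 15 min incubation, room temperature.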
Starred values were filed as active, the others as inactive; i = inactive; u = inconclusive; x = not tested or not shown; [ ] = another dose, or the depositor's remark.

mol	TSHR ag	A647 fluor	A488 fluor	Resorufin fluor	AID923
COCCCN1C(=O)C(O)=C(C(=O)c2ccc(C)o2)C1c1cccc(Br)c1 (stereo not given)	13.5%	x	x	x	1.0%
COc1cccc(Nc2nnc(SCC(=O)N3CCOCC3)s2)c1	-2.9%	1.12e-08	i	i	0.1%
CC12CCC(c3c(C(=O)O)nn(-c4ccccc4)c31)C2(C)C (stereo not given)	-3.9%	2.1e-09	i	i	-0.9%
CCn1c(SCC(=O)Nc2cc(NC(C)=O)ccc2OC)nnc1-c1ccncc1	2.0%	2.8e-09	i	i	0.4%
NC1=NCCCC1	-4.4%	x	x	x	-2.7%
O=S(=O)(c1ccc2c(c1)OCCO2)N1CCN(c2nc3ccccc3s2)CC1	19.7%	1e-09	i	i	-0.5%
O=C1CCCC/C1=C\Nc1ccccc1C(=O)O	-0.9%	1e-09	i	i	1.5%
O=C(NCc1nnc(SCC(=O)N2CCCC2)o1)c1c(F)cccc1Cl	2.5%[11.4 µM]	5.7e-09	i	i	-1.7%
COc1cccc(-c2nn(C)c3sc(C(=O)NCc4ccc(C)o4)cc23)c1	x	1.3e-09	i	i	4.9%
Cc1nonc1NC(=O)CSc1nnc(-c2ccoc2C)n1CC(C)C	25.5%	1e-09	i	i	2.4%
O=C1CN=C(Nc2cccc(C(F)(F)F)c2)N1C1CCCC1	-1.7%	1e-09	i	i	-3.7%
O=C(O)c1ccc2[nH]c3c(c2c1)CSCC3	-13.0%	1.68e-08	i	i	9.3%
CCOC(=O)c1cccc(NC(=O)c2cnc3ccccc3n2)c1	-16.7%	1e-09	i	i	1.4%
O=C(NCCN1CCOCC1)c1cn(CCc2ccccc2)nn1	13.2%	5.24e-08	i	i	3.2%
c1ccc(-c2ccc(OCCOCCn3cncn3)cc2)cc1	-5.1%	2.79e-08	i	i	-0.3%

Ordered by molar mass (ascending): 3 of the compounds above
mol	TSHR ag	A647 fluor	A488 fluor	Resorufin fluor	AID923
O=C(NCCN1CCOCC1)c1cn(CCc2ccccc2)nn1	13.2%	5.24e-08	i	i	3.2%
COc1cccc(-c2nn(C)c3sc(C(=O)NCc4ccc(C)o4)cc23)c1	x	1.3e-09	i	i	4.9%
CCn1c(SCC(=O)Nc2cc(NC(C)=O)ccc2OC)nnc1-c1ccncc1	2.0%	2.8e-09	i	i	0.4%

(more compounds)
mol	TSHR ag	A647 fluor	A488 fluor	Resorufin fluor	AID923
Cc1cc(C(=O)Nc2ccc3c(c2)OCCO3)co1	-0.4%	x	x	x	0.8%
CCCC(=O)NC(C)C(c1cccs1)N1CCN(C)CC1 (stereo not given)	-16.2%	2.02e-08	i	i	-0.5%
CC(C)(C)NCc1cc2ccccc2[nH]c1=O	x	4.41e-08	i	i	x
Cc1nc2cc(C(=O)NCCN3CCOCC3)ccc2n1-c1ccc(F)cc1F	x	3.72e-08	i	i	-0.3%
COc1cc(NC(=O)CS(=O)(=O)c2ccc(C)cc2)cc(OC)c1OC	0.3%	2.73e-08	i	i	1.3%
Cc1ccc(SCCNC(=O)CN2C(=O)c3ccccc3S2(=O)=O)cc1	11.8%	5.04e-08	i	i	1.8%
CCN1CCN(Cc2ccc(NC(=O)Nc3ccc(OC)cc3)cc2)CC1	1.7%	x	x	x	-0.5%
Cc1noc(/C=C/c2ccco2)c1S(=O)(=O)N1CCC(C(=O)N2CCc3ccccc3C2)CC1	7.1%	7.6e-09	i	i	0.6%
C=CCOc1cccc(C2/C(=C(/O)c3ccc(Cl)cc3)C(=O)C(=O)N2CCN2CCOCC2)c1 (stereo not given)	3.7%	1e-09	i	i	1.4%
O=C(Nc1ccc(F)cc1Cl)c1ccc2c(=O)n3c(nc2c1)CCCCC3	7.7%	2.7e-09	i	i	2.0%
Cn1c(=O)n(-c2cccc(Cl)c2)c(=O)n1C	-1.1%	2.27e-08	i	i	-0.9%
O=C(NC1CCCCC1)c1ccc(S(=O)(=O)NCc2ccco2)cc1	u	3.77e-08	i	i	0.3%
Cc1cccc2[nH]c(-c3ccc(NC(=O)c4ccco4)cc3)nc12	-25.1%	2.14e-08	i	i	6.7%
O=C(CSc1nc2c([nH]c3ccccc32)c(=O)n1-c1cccc(Cl)c1)N1CCOCC1	38.9%	x	x	x	-1.5%
CN(C)S(=O)(=O)c1ccc(C(=O)N2CCCC2c2nc3ccccc3s2)cc1 (stereo not given)	3.1%	3.17e-08	i	i	-1.0%

mol	TSHR ag	A647 fluor	A488 fluor	Resorufin fluor	AID923
CCn1c(SCc2nc(-c3ccc(OC)c(OC)c3)no2)nnc1-c1cccs1	20.3%	1.3e-09	i	i	0.5%
CN1CCN(C(=O)c2c(O)c3cccc4c3n(c2=O)CC4)CC1	10.7%	1.79e-08	i	i	2.4%
COc1ccccc1CN1C(=O)CCC1(C)C(=O)NCc1cccnc1 (stereo not given)	1.5%	3.2e-08	i	i	1.1%
O=C(COc1ccc(-n2cnnn2)cc1)NCCc1ccc(F)cc1	2.9%	1e-09	i	i	6.5%
O=C(CCn1nc(-c2ccccc2)ccc1=O)NCCCN1CCCCCC1	6.0%	5.07e-08	i	i	-1.9%
O=C(OCC1CCCN2CCCCC12)c1ccc2c(c1)OCO2 (stereo not given)	2.6%	8.8e-09	i	i	0.3%
Cc1nc2ccc3[nH]snc3c2n1	17.8%	x	x	x	9.7%
CN(C)/C=N/c1c(C#N)nnn1Cc1ccccc1	3.3%[11.4 µM]	1e-09	i	i	0.9%
COc1ccc(-n2c(=O)[nH]cc(C(=O)Nc3ccc(NC(C)=O)cc3)c2=O)cc1	-0.7%	1e-09	i	i	0.1%
CCCn1c(SCC(=O)N2CCN(c3ccc(OC)cc3)CC2)nc2c1c(=O)n(C)c(=O)n2C	5.0%	3.9e-09	i	i	0.5%
Cc1ccccc1N(CC(=O)NC1CCCC1)C(=O)CS(=O)CC(=O)Nc1ccc2c(c1)OCO2 (stereo not given)	-3.8%	3.5e-09	i	i	0.6%
O=C(O)CCNC(=O)c1ccc(Br)o1	-0.4%	1e-09	i	i	0.6%
CCCC(c1nnnn1Cc1ccc(OC)cc1)N1CCN(c2ccccc2OC)CC1 (stereo not given)	u	1.6e-09	i	i	0.4%
COc1ccc2[nH]c(=O)c(CN(C)C(=O)c3ccncc3)cc2c1	-6.9%	1.14e-08	i	i	0.3%
COCCNC(=O)Cc1cn(C)c2ccccc12	12.9%	8.8e-09	i	i	0.6%

mol	TSHR ag	A647 fluor	A488 fluor	Resorufin fluor	AID923
COC(=O)c1ccc(C(NC(=O)OCc2ccccc2)/C(C)=C/[C@@H](C)C(=O)NCCN2CCOCC2)cc1 (stereo not given in full)	17.5%	x	x	x	2.0%
Cc1c(NC(=O)c2ccc(=O)oc2)c(=O)n(-c2ccccc2)n1C	x	4.9e-09	i	i	x
O=C(CN1C(=O)CCS(=O)(=O)c2ccccc21)Nc1cccc(F)c1	-1.4%	1e-09	i	i	0.9%
COc1cc2[nH]c(=O)n(CCCCCC(=O)NCCCN3CCC(C)CC3)c(=O)c2cc1OC	7.4%[11.4 µM]	1e-09	i	i	-0.6%
C=CCN(Cc1cc(OC)ccc1OC)S(=O)(=O)N(C)C	21.3%	7.6e-09	i	i	1.5%
CCCOc1ccc(/C(O)=C2/C(=O)C(=O)N(CCOC)C2c2cccnc2)cc1 (stereo not given)	-4.0%	1.8e-09	i	i	-1.8%
O=C(CN(Cc1ccco1)C(=O)CNS(=O)(=O)c1ccc(F)cc1)NCCc1ccccc1	-0.6%	2.57e-08	i	i	-0.9%
O=C(NCCN1CCCCC1)c1ccc(Cc2nc3ccccc3[nH]2)cc1	-4.3%	x	x	x	2.0%
COc1ccccc1CN1CCCC2(CCN(C(=O)c3cccn3C)CC2)C1	21.4%	1e-09	i	i	4.5%
CCOC(=O)N1CCN(C(=O)CC(=O)Nc2ccc3nc4n(c(=O)c3c2)CCCCC4)CC1	-0.9%	1e-09	i	i	0.5%
CC(C)(C)OC(=O)N1CCC(c2c(C(=O)O)cnn2-c2ccccc2Cl)CC1	-4.8%	2.77e-08	i	i	-0.9%
O=C(CCN1C(=O)c2ccccc2C1=O)OCn1nnc2ccccc2c1=O	4.1%	1e-09	i	i	-0.6%
CC1=C(C(=O)Nc2ccccc2)C(c2cccs2)n2nnnc2N1 (stereo not given)	12.4%	2.8e-09	i	i	0.5%
COc1ccc(-c2nnc(NC(=O)c3cc(C)on3)s2)cc1	x	1e-09	i	i	0.6%
COCC(=O)Nc1cc(=O)n(C)c(=O)n1C	-1.0%	x	x	x	0.5%

mol	TSHR ag	A647 fluor	A488 fluor	Resorufin fluor	AID923
COc1ccc(Cc2ccc3[nH]c(=O)cc(C)c3c2)cc1S(=O)(=O)O	-1.7%[11.4 µM]	2.25e-08	i	i	-2.2%[11.5 µM]
Cc1ccc(C(=O)NCc2ccco2)cc1S(=O)(=O)N1CCCCC1	u	1.3e-09	i	i	3.9%
CCOCC(=O)Nc1cccc(OC)c1	0.7%	6.1e-09	i	i	1.8%
NC(=O)CNC1CC(=O)N(CCc2ccccc2)C1=O (stereo not given)	9.3%	x	x	x	2.3%
CCOC(=O)c1ccc(NC(=O)CN(C)S(=O)(=O)c2ccc(OC)cc2)cc1	3.7%	3.19e-08	i	i	-1.7%
Cc1csc(NC(=O)CN2CCCCCC2)n1	3.2%	3.35e-08	i	i	0.7%
COc1cccc(C(=O)NCC2CCCO2)c1 (stereo not given)	2.1%	x	x	x	0.6%
CC(C)C(=O)Nc1cccc(C(=O)NCCc2ccc(S(N)(=O)=O)cc2)c1	3.8%	1e-09	i	i	-3.1%
CC1(C)CC(=O)C(C=Nc2ccc3c(c2)OCO3)=C(O)C1	u	x	x	x	1.7%
O=S(=O)(c1ccc(Br)s1)N1CCc2ccccc2C1	u	3.4e-08	i	i	0.8%
COCCNc1ncnc2ccc(-c3cccc(OC)c3)cc12	6.0%	2.53e-08	i	i	-0.2%
COc1ccc(NC(=O)N2CC[C@@]3(CCCNC3)C2)cc1	7.2%	3e-09	i	i	0.6%
CCCCOCCCNC(=O)c1cccs1	4.1%[11.4 µM]	x	x	x	-1.7%
O=c1ccc2c(OCCCCc3ccccc3)c3ccoc3cc2o1	u	2.72e-08	i	i	-1.5%
O=C(O)CSCC(=O)Nc1ccc(S(=O)(=O)N2CCCCC2)cc1	x	3.29e-08	i	i	x

mol	TSHR ag	A647 fluor	A488 fluor	Resorufin fluor	AID923
COc1cc(C(O)P(=O)(OC(C)C)c2ccc(N(C)C)cc2)cc(OC)c1OC (stereo not given)	0.2%	1.19e-08	i	i	2.2%
Cn1c(=O)c(C(=O)Nc2ccccn2)c(O)c2ccccc21	16.9%	5.6e-09	i	i	0.7%
CC(C)C(NS(=O)(=O)c1cccs1)C(=O)NCc1ccc2c(c1)OCO2 (stereo not given)	41.6%	x	x	x	0.0%
COc1ccc(Cl)cc1S(=O)(=O)N1CCCC(C(=O)NCC(N)=O)C1 (stereo not given)	2.2%	1e-09	i	i	-0.4%
COc1ccc(S(=O)(=O)Cc2ccc(C(=O)N3CCN(C4CCCCC4)CC3)o2)cc1	6.4%	x	x	x	2.5%
CCOP(=O)(c1ccc(N(C)C)cc1)C(O)c1c(Cl)cccc1Cl (stereo not given)	20.2%	5.7e-09	i	i	1.2%
Cc1ccc(CC2(O)CC(C)N(C)CC2C)c(C)c1 (stereo not given)	8.5%	8.6e-09	i	i	0.8%
COC(=O)c1c(NC(=O)CSc2n[nH]c(N)n2)sc(C)c1C	17.2%	2.6e-08	i	i	-1.0%
COc1ccc(S(=O)(=O)N2CCC(C(=O)N3CCCC3)CC2)cc1	u	1.6e-09	i	i	1.3%
COC(=O)c1[nH]c2cccc(OC)c2c1NC(=O)CN1CCOCC1	-9.1%	1e-09	i	i	3.1%

These rows are one share of the data; rates above refer to the full screens.
